# HNF4A DNA FP – change in binding of human HNF4 alpha to DNA; activity change, % at 10 µM; HNF4a-FITC DNA binding, fluorescence polarization, 1 h; actives 0.3% (n = 360,000); P41235; in the data active = activity change above about 30%, passing the limit was not always enough;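 also: controls were the assay level and a saturating level of protein; the project sought stronger binding though the title names inhibitors; some compounds called inactive have numbers as strong as hits; positive values seem to mean higher polarization but the record does not say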
# ALR H2O2 inh – blocks human ALR sulfhydryl oxidase activity | P55789 | purified ALR, DTT oxidation, H2O2 HRP-luminol luminescence | inhibition, % (no concentration beside the values) | actives 3.8% (n = 290,000) | AID 485317;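 active = mean and each replicate at 75% or more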;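 also: stock transfer was 7.5 nL into about 7.5 µL; 0% = neutral wells and 100% = wells with inactivated enzyme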
# Target sequence (P55789 whole entry, looked up): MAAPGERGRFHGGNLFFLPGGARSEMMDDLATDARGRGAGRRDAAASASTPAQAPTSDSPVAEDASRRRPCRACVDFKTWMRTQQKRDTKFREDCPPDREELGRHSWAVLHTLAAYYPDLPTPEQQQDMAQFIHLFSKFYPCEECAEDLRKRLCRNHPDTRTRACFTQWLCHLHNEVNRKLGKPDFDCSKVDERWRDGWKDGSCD
# FGF22 binding – binders of recombinant human FGF22 by thermal shift; calls only at 9.99 µM; SYPRO orange fluorescence; percent of sucrose octasulfate shift, DMSO zero; actives 1.5% (n = 340,000);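 active = melting point raised past a set limit in the mean and every replicate; three in four hits are not shown here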
# E coli growth – E. coli growth inhibition; actives 0.21% (n = 330,000); Escherichia coli growth, OD600, 23 h; hits give low values; OD600 absorbance (concentration not given with the values);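 active = OD600 absorbance below the run mean of sample wells minus 3.6 SD, in any replicate, cut at about 0.56 in these data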;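 also: stock transfer was 300 nL into about 60 µL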
# rRNA inh HTS – inhibitors of bacterial rRNA selective over humanized ribosomes. E. coli WT GFP vs humanized-ribosome RFP mutants, fluorescence, 24 h; hits give low values; DMSO median 0, no signal -100. GFP signal change (wild-type ribosome), % (no concentration beside the values). actives 1.6% (n = 350,000). AID 720706;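 active = significant combined selectivity score with lowered wild-type GFP, culture density cut under 30%, mutant RFP and density less affected; inactive = any of these conditions unmet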; also: one replicate is shown; some compounds called inactive have numbers as strong as hits
# UCH37 inh – blocks the human deubiquitinase UCH37 | purified proteasome/UCH37, Ub-AMC cleavage fluorescence | inhibition, % (test concentration not listed) | actives 0.33% (n = 330,000) | AID 588478;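 active = mean of two replicates above 20%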;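 also: 0% = compound-free wells with enzyme and 100% = wells lacking proteasome; stock transfer was 100 nL into about 20 µL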
# Target sequence (Q9Y5K5 whole entry, looked up): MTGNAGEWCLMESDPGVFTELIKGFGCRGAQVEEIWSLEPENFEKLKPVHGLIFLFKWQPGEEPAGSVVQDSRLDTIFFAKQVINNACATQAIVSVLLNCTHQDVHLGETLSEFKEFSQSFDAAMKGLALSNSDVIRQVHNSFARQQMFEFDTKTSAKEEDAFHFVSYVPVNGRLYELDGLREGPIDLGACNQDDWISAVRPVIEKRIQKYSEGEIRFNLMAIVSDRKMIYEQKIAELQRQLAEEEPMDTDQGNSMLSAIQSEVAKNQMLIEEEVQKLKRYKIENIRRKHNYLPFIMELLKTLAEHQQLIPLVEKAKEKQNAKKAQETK
#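 System: Proteasome-associated human UCH37 deubiquitinase; Input: 0.15 nM proteasome in added enzyme buffer; Also added: Ub-AMC substrate from 1 µM stock; Incubation: 30 min compound-proteasome preincubation then 25 min substrate reaction, room temperature; Detection: fluorescence, ex 355 nm, em 460 nm; Read-out: % inhibition of Ub-AMC cleavage fluorescence; Benchmarks: no-proteasome and no-compound wells.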
# B2AR ag – activates human beta-2 adrenergic receptor causing internalization. P07550. AID 504454. response, % (no concentration beside the values). actives 0.43% (n = 340,000). Am2.2-beta2AR cells, FAP receptor internalization, flow cytometry; reference of the scale not given here;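 active = response above a set limit, near 3 SD of response in nonfluorescent compounds, cut at about 42% in these data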;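 also: stock transfer was 100 nL into about 11 µL; a reference agonist was the positive control; negative values mostly stem from fluorescent compounds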
# Target sequence (P07550 whole entry, looked up): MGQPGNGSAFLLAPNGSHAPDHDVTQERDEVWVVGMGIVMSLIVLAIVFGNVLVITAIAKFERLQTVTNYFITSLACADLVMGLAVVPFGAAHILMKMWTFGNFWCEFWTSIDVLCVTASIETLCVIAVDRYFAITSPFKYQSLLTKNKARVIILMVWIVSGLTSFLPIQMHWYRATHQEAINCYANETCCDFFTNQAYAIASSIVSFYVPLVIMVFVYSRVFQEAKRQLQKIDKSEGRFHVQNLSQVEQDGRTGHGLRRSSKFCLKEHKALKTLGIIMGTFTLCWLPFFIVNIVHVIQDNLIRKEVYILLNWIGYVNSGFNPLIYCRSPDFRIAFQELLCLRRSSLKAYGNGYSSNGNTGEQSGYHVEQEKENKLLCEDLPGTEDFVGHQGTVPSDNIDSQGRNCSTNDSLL
# rRNA inh HTS OD600 – second read-out of rRNA inh HTS, no call of its own (marks repeat the call); OD600 change, %; measured here: OD600 growth;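 optical density of the mix in the first replicate; 0 = DMSO median and -100 = no signal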
# rRNA inh HTS RFP – recorded beside rRNA inh HTS, whose call it bears; RFP signal change, %; measured here: RFP humanized mutant strains;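 first replicate; 0 = DMSO median and -100 = no signal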
# Numbers without * were called inactive; i = inactive; nt = not tested or not shown; + = active, no number; & = joins results of further samples. Only part of the results is shown. The share of hits here may be higher or lower than overall.
SMILES,HNF4A DNA FP,ALR H2O2 inh,FGF22 binding,E coli growth,rRNA inh HTS,rRNA inh HTS OD600,rRNA inh HTS RFP,UCH37 inh,B2AR ag
CCN(CC)C(=O)C1=C(C)N(Cc2ccc(OC)cc2)C(=O)C(CC(=O)NCc2cccc3ccccc23)C1 (stereo not drawn),0.3,nt,i,nt,-4,-14,-0.1,nt,nt
Cc1nn(CC(=O)NCCCN2CCCCC2)c(=O)c2cccn12,1.4,-8,i,0.71,9,10,-0.2,-0.1,5
COc1cccc(C(=O)Nc2c(C(N)=O)oc3ccccc23)c1,-0.7,48,i,0.71,-3,-3,4.2,4.6,-2
O=C(CN(C(=O)Cn1nnc(-c2ccc(F)cc2)n1)c1cccc(F)c1)NC1CCCC1,-1.9,-5,i,0.66,0,11,-0.8,2.0,-7
CC(=O)NCCNC(=O)c1ccc(CSc2ccc(Cl)cc2)cc1,0.1,-2,i,0.65,12,-2,-0.8,-0.7,1
N#Cc1ccc(-c2csc(-c3ccno3)n2)cc1,7.1,nt,i,0.67,9,9,4.0,-0.8,-11
O=C(NNC(=O)c1cc2ccccc2[nH]1)OCc1ccccc1,3.1,1,i,0.73,4,-3,2.3,5.0,-6
CC(=O)c1cccc(OCCN2C(=O)NC(C)(C)C2=O)c1,-0.5,-10,nt,0.7,nt,nt,nt,-0.1,-3
Cc1ccc(CNS(=O)(=O)c2ccc3c(c2)NC(=O)CS3)cc1,-0.9,7,i,0.72,-20*,-13*,0.1*,3.7,7
CCN(CC(=O)Nc1c(F)cccc1F)C(=O)COc1ccc2c(c1)CCC2,2.8,-2,i,0.69,3,1,-3.0,0.2,-4
CCC(SC1=Nc2ccccc2C2=NC(CC(C)C)C(=O)N12)C(=O)Nc1ccc2c(c1)OCO2 (stereo not drawn),4.5,-6,nt,0.71,nt,nt,nt,0.6,-4
O=C1C[C@@H]2c3c(cccc3CN1Cc1ccccc1)C[C@@H](O)[C@H]2O,1.8,nt,i,nt,-3,6,-4.1,4.7,-11
O=C(NCc1ccco1)C(c1ccccc1)N(C(=O)Cc1cccs1)c1cccnc1 (stereo not drawn),-0.5,4,i,0.65,13,7,3.2,0.8,-6
Cc1cc(C(=O)OCC(=O)Nc2cccc([N+](=O)[O-])c2)c(C)o1,1.5,0,i,0.69,-26,-24,-7.1,4.2,10
Cc1cc(NC(=O)CSc2nnc(CNC(=O)c3c(F)cccc3F)o2)no1,0.9,-3,i,0.7,4,10,2.1,-1.4,-10
CCOC(=O)c1ccc(NC(=S)N2CCSC2c2c(F)cc(F)cc2F)cc1 (stereo not drawn),-2.1,-18,i,0.7,-28*,-21*,-3.8*,2.3,12
CC(OC(=O)CNC(=O)c1cccs1)C(=O)Nc1ccc(S(N)(=O)=O)cc1 (stereo not drawn),-4.1,-8,i,0.69,6,4,2.9,3.8,2
CC(=O)c1c(C)[nH]c(C(=O)N(C)CC(=O)Nc2ccc(Cl)c(C(F)(F)F)c2)c1C,5.9,0,i,0.73,-4,-1,2.3,-3.4,0
CC(=O)NC(N(C#N)c1nc(Cl)nc(N(C)C)n1)C(Cl)(Cl)Cl (stereo not drawn),-1.1,2,i,0.67,nt,nt,nt,1.4,9
COc1ccc2cc(C(=O)N3CCCCCC3)sc(=O)c2c1OC,-2.4,0,nt,0.71,nt,nt,nt,3.6,0
Cc1ccc(C(=O)O)cc1NC(=O)C1=CSCCO1,0.5,-6,i,0.71,1,12,-5.0,5.1,4
CSc1ccccc1NC(=O)CN(C)Cc1cccc(Cl)c1,5.8,-2,i,0.68,-22,-50,-6.2,0.6,6
O=C(NCc1ccccc1)N1CCOc2ccccc21,1.6,-9,i,0.7,2,13,0.7,2.8,2
O=c1[nH]c2ccccc2c(O)c1Cc1ccccc1,-0.7,8,i,0.66,8,4,-1.2,-1.9,3
Cc1c(Cc2ccccc2)c(=O)oc2cc(OCC(=O)NCC(O)c3ccccc3)ccc12 (stereo not drawn),-0.4,5,i,0.66,0,3,6.2,-72,3
# The list goes on.
SMILES,HNF4A DNA FP,ALR H2O2 inh,FGF22 binding,E coli growth,rRNA inh HTS,rRNA inh HTS OD600,rRNA inh HTS RFP,UCH37 inh,B2AR ag
Cc1ccccc1C(=O)Nc1cccc(NC(=O)c2ncn[nH]2)c1,-3.3,-5,i,0.71,9,-4,0.1,4.6,-4
CN(C)S(=O)(=O)c1ccc(N2CCCC2)c(C(=O)OCC(=O)NC2CCCCC2)c1,4.3,3,i,0.66,-3,5,-0.7,2.2,-1
CCC(C)NS(=O)(=O)c1ccc(S(=O)(=O)N2CC=C(c3ccc(F)cc3)CC2)cc1 (stereo not drawn),-2.3,-7,+,0.69,-14,-16,3.6,1.8,6
COc1ccc(/C=C(/C(=O)Nc2ccccc2C(=O)N2CCCC2)c2ccccc2)cc1,-0.3,-4,nt,0.68,-39,-62,6.4,7.3,8
Cc1ccc(NC(=O)CN(C)C(=O)COC(=O)c2nccnc2N)cc1,0.5,-3,i,0.69,nt,nt,nt,-350,-3
CCOC(=O)C1Oc2ccccc2C(c2cccc3ccccc23)=C1C(=O)OC (stereo not drawn),-0.3,nt,i,0.72,-7,-26,-0.5,1.8,11
Nc1c(N(CCC2=CCCCC2)C(=O)c2ccc([N+](=O)[O-])o2)c(=O)[nH]c(=O)n1Cc1ccccc1,7.7,-15,i,0.61,0,7,1.8,-0.5,19
CCO[C@H]1OC(C(N)=O)=C[C@@H](c2csc3ccccc23)[C@@H]1CCCO,0.0,-16,i,nt,8,-3,-2.0,1.7,-5
CCn1cc(C(=O)NCCCN2CCC(C)CC2)c(=O)c2cc(S(=O)(=O)N3CCCC3)ccc21,0.7,-9,nt,0.74,4,2,-3.5,2.7,0
Cc1nc(-c2ccccc2O)n(-c2ccccc2)n1,1.6,nt,nt,0.73,nt,nt,nt,-0.1,2
Nc1n[nH]c(-c2ccc(Br)cc2)c1Cl,-1.0,-3,nt,0.65,nt,nt,nt,2.4,2
CC(C)(C)c1ccc(OCC(O)CN(CCO)CC(O)Cn2ccc3ccccc32)cc1 (stereo not drawn),-0.6,-4,i,0.68,-11,-23,3.7,4.5,10
Cc1noc(C)c1S(=O)(=O)N(CC(=O)NCc1ccc2c(c1)OCO2)c1ccc(C(C)C)cc1,2.6,95*,i,0.74,-7,-4,-1.4,7.4,-2
CCOC(=O)c1c(/N=C/c2cccc([N+](=O)[O-])c2O)sc(C)c1C,-7.4,86*,i,nt,4,-4,1.3,nt,18
CC(=O)c1ccc(N2CCN(CC(=O)Nc3ccccc3N3CCOCC3)CC2)cc1,0.6,nt,i,0.68,9,0,0.9,1.7,4
O=C1C(Cl)=C(NCc2cccnc2)C(=O)c2ccccc21,-2.7,-22,i,0.57,-18,-44,-12,25*,3
COc1cc(OC)c(C(=O)NNC(=S)NC2CCCCC2)cc1OC,0.3,13,i,0.65,-4,-4,0.2,-25,-3
CCCC(=O)Nc1ccc(-c2nc3cc(C)c(C)cc3o2)c(O)c1,1.2,1,nt,0.75,nt,nt,nt,-329,3
COc1cc(OC)cc(C(=O)N[C@H](C(=O)OCC(=O)Nc2ccc(F)c(F)c2)C(C)C)c1,0.1,-8,i,0.71,-26,-37,-17,4.0,-4
CC(=O)NCC(=O)OCC(=O)c1ccccc1,-3.1,-4,nt,0.68,5,1,-0.7,-0.1,6
CCOc1cc(C(=O)Nc2ccc(N3CCOCC3)cc2)cc(Br)c1OC,1.0,-23,i,0.73,-15,-6,-3.9,-23,1
COCCCn1c(=O)c2sccc2n(Cc2cccc(F)c2)c1=O,2.0,-6,i,0.68,-8,-9,-3.2,4.3,-3
Brc1ccc(-c2nnc3sc(CN4CCc5ccccc5C4)cn23)cc1,3.8,nt,i,0.74,8,3,0.0,3.9,-11
COc1ccc(CCNC(=O)C2CC3Cn4c(nc5ccccc54)C3N2c2ccccc2)cc1 (stereo not drawn),-3.2,4,i,0.72,-4,4,-3.7,4.5,-13
COc1ccc(CCN2C(=O)C3C4C=CC(C4)C3C2=O)cc1OC (stereo not drawn),2.7,-7,nt,0.7,nt,nt,nt,-0.1,-7
# Continuation:
SMILES,HNF4A DNA FP,ALR H2O2 inh,FGF22 binding,E coli growth,rRNA inh HTS,rRNA inh HTS OD600,rRNA inh HTS RFP,UCH37 inh,B2AR ag
COc1ccc(NC(=O)CS(=O)c2cccc(C(F)(F)F)c2)cc1 (stereo not drawn),-1.4,-4,i,0.68,5,7,2.9,1.4,-1
COc1ccc(Cc2nnc(SCC(=O)N(C)CC(=O)Nc3ccc(C)cc3)o2)cc1,-0.2,-1,nt,0.68,0,-1,2.1,0.6,-10
COC(=O)c1c(C)oc2c1cc(NS(=O)(=O)c1ccc(C(=O)O)cc1)c1ccccc12,-2.2,1,i,0.75,-23,-52,-9.1,8.0,-3
COc1ccc(C(C(=O)Nc2c(C)cccc2C)N2CCN(c3ccc(C)cc3)CC2)cc1 (stereo not drawn),1.1,nt,i,nt,11,24,-5.5,nt,nt
CCC(c1nnnn1CCc1ccccc1)N(Cc1ccco1)Cc1cc2cc(C)cc(C)c2[nH]c1=O (stereo not drawn),0.8,-4,nt,0.77,nt,nt,nt,-1.5,7
CC(=O)Nc1ccc(S(=O)(=O)N2CCC(C(=O)O)(c3ccccc3)CC2)cc1,-2.5,0,i,0.73,21,10,-0.9,4.0,-4
COc1ccc(C2CC(=O)c3cnc(NC(=O)c4ccccc4)nc3C2)cc1OC (stereo not drawn),3.2,nt,i,0.74,2,3,0.4,8.9,-4
Cc1ccc(S(=O)(=O)N(C)C[C@@H]2Oc3ccc(NC(=O)Cn4cnnn4)cc3C(=O)N([C@@H](C)CO)C[C@H]2C)cc1,6.3,-1,i,0.77,0&3,2&14,-0.5&16,-0.5,-6
COc1ccc(N2CCN(CCNC(=O)c3ccc4c(c3)[nH]c(=S)n3c5ccccc5nc43)CC2)cc1,3.4,5,i,0.69,-16,-12,3.5,6.4,-13
O=C(Nc1ccccc1Cl)c1cnccn1,0.7,-3,nt,0.7,nt,nt,nt,0.7,2

# Exported tab-delimited: entries from further up.
Compound	HNF4A DNA FP	ALR H2O2 inh	FGF22 binding	E coli growth	rRNA inh HTS	rRNA inh HTS OD600	rRNA inh HTS RFP	UCH37 inh	B2AR ag
COc1ccc(Cc2nnc(SCC(=O)N(C)CC(=O)Nc3ccc(C)cc3)o2)cc1	-0.2	-1	nt	0.68	0	-1	2.1	0.6	-10
COC(=O)c1c(C)oc2c1cc(NS(=O)(=O)c1ccc(C(=O)O)cc1)c1ccccc12	-2.2	1	i	0.75	-23	-52	-9.1	8.0	-3
COc1ccc(C(C(=O)Nc2c(C)cccc2C)N2CCN(c3ccc(C)cc3)CC2)cc1 (stereo not drawn)	1.1	nt	i	nt	11	24	-5.5	nt	nt
CCC(c1nnnn1CCc1ccccc1)N(Cc1ccco1)Cc1cc2cc(C)cc(C)c2[nH]c1=O (stereo not drawn)	0.8	-4	nt	0.77	nt	nt	nt	-1.5	7
CC(=O)Nc1ccc(S(=O)(=O)N2CCC(C(=O)O)(c3ccccc3)CC2)cc1	-2.5	0	i	0.73	21	10	-0.9	4.0	-4
COc1ccc(C2CC(=O)c3cnc(NC(=O)c4ccccc4)nc3C2)cc1OC (stereo not drawn)	3.2	nt	i	0.74	2	3	0.4	8.9	-4
Cc1ccc(S(=O)(=O)N(C)C[C@@H]2Oc3ccc(NC(=O)Cn4cnnn4)cc3C(=O)N([C@@H](C)CO)C[C@H]2C)cc1	6.3	-1	i	0.77	0&3	2&14	-0.5&16	-0.5	-6
COc1ccc(N2CCN(CCNC(=O)c3ccc4c(c3)[nH]c(=S)n3c5ccccc5nc43)CC2)cc1	3.4	5	i	0.69	-16	-12	3.5	6.4	-13
O=C(Nc1ccccc1Cl)c1cnccn1	0.7	-3	nt	0.7	nt	nt	nt	0.7	2
